Screening results (PubChem)
Rango dissoc inh: inhibitors of RanGTP-induced Rango-importin beta complex dissociation; Potency, µM (top dose mostly 46.1 µM), for inactives: top-dose activity change, negative = inhibition; 340,000 compounds, 0.071% hits; O95149+P62826; Biochemical FRET Rango-importin beta, RanGTP-induced dissociation; active means falling FRET ratio curve, often poorly fitted, with flat reads before Ran was added; inconclusive means other falling curves, or compound fluorescence or quenching; inactive means flat or rising ratio curve;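 further: potency means the concentration at half of the fitted maximal effect; % of control where 0% means no effect; nearly all actives have a fitted effect of over 45% in size; -100% = wells without RanGTP and RCC1; the record marks most hits as doubtful in a second field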
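Recombinant Rango FRET biosensor (EYFP–snurportin 1 IBB–cerulean CFP10) at 0.1 uM premixed with 0.25 uM importin beta in PBS, 1 mM DTT, 0.02% Tween-20, 0.1% BSA. Compound added 5 min; RanGTP-RCC1 (0.6 uM Ran, 2 mM GTP, 0.2 uM RCC1) then triggers release, read at 45 min.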
Rango complex inh: inhibitors of Rango-importin beta complex formation | Q14974 | Rango CFP/YFP FRET sensor + importin beta, 45 min | Potency, µM (titrated, usually from 92.2 µM), for inactives: at the highest dose inhibition of complex formation | 340,000 compounds, 0.031% hits; active = rising FRET ratio curve, often small or poorly fitted; inconclusive = mostly compound fluorescence or quenching in the first reads; inactive = flat curves in all reads;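 further: potency means the concentration at half of the fitted maximal effect; 0% = DMSO wells and 100% = buffer wells lacking importin beta; nearly all actives have a fitted effect of over 15% in size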
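FRET biosensor Rango (snurportin 1 IBB between N-terminal EYFP and C-terminal Cerulean), 50 nM in PBS/1 mM DTT/0.02% Tween-20/0.1% BSA, preincubated 5 min RT with compound; 0.125 microM importin beta added, 45 min RT, CFP/YFP FRET ratio read.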
miR-21 reporter: miR-21 reporter, rising signal. HeLa miR-21 FLuc reporter, luciferase, 48 h. Potency, µM (titrated, usually from 38.3 µM), inactives show at the top dose reporter change, positive = more light. 340,000 tested, under 10 active. AID 2288; active = well fitted rising curve with a large enough effect; inconclusive = small, poorly fitted or top-dose-only effect; inactive = no such curve, though single readings can be large or run the other way;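 further: % of control where 0% means no effect; miR-21 action dims this reporter so a rising signal means less miR-21 action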
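HeLa cells endogenously expressing miR-21, stably carrying CMV-driven firefly luciferase with a downstream miR-21 binding site, 2000 cells/well. Titrations up to approximately 40 uM, 48 hours; luciferase luminescence read.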
GLA inh pH 4.5: alpha-galactosidase A (human) inhibition, pH 4.5 | P06280 | purified enzyme, 4-MU-alpha-Gal fluorescence, pH 4.5 | activity change, negative = inhibition, % at 105 µM | 230,000 tested, under 10 active; inconclusive = small, poorly fitted or top-dose-only inhibition, or a rising curve; inactive = flat fitted curve, though single readings scatter; no compound was filed as active;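 further: 0% = full activity with enzyme and -100% = basal without enzyme; dose as in the result columns while the protocol names 77 µM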
Target sequence (P06280 whole entry, looked up): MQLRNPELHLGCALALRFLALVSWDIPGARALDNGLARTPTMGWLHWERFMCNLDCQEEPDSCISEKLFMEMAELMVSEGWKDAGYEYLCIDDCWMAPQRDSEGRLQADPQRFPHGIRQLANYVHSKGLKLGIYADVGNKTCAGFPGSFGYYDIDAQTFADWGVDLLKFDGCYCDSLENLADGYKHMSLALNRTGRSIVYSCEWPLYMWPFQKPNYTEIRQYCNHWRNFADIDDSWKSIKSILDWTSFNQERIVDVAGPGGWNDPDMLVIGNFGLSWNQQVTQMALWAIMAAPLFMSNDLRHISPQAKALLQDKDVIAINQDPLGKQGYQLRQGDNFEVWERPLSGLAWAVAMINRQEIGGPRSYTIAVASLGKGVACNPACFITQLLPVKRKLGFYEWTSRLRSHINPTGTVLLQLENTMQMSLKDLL
The depositor's hits bear a star; ? = inconclusive; . = no result given; & = joins results of further samples.

molecule	Rango dissoc inh	Rango complex inh	miR-21 reporter	GLA inh pH 4.5
Cc1nn(C)c(C)c1NS(=O)(=O)c1ccc(Cl)s1	0%	?	.	.
Cc1cc(NC(=O)CSc2nc3ccsc3c(=O)n2Cc2ccccn2)n[nH]1	-13%	0.3%	-48%	1
CCN1C(=O)c2cccc3c(S(=O)(=O)Nc4ccc(OC)cc4OC)ccc1c23	-8%	1.2%	6%	-5
N#Cc1ccsc1NC(=O)CN1CCCCC1	-5%	0.3%	5%	1
CCN(CC)CCN(Cc1cc2ccc(C)c(C)c2[nH]c1=O)C(=S)NCc1ccco1	6%	-1.7%	16%	-5
Cc1nc([N+](=O)[O-])cn1-c1nc2ccccn2c1[N+](=O)[O-]	-4%	-1.5%	-5%	2
CCOC(=O)Cc1csc(NS(=O)(=O)c2ccc(NC(C)=O)cc2)n1	-8%	-4.7%	-5%	.
COc1ccc(NC(=O)Cn2c(=O)n(-c3ccccc3)c(=O)c3oc4ccccc4c32)c(OC)c1	-1%	-1.1%	1%	2
O=C(NCCCN1CCCC1=O)Nc1ccccc1Cl	21%	-5.3%	-6%	.
C/C(=N\Nc1ccc(C(=O)c2c(C)cc3ccccn23)cc1[N+](=O)[O-])c1ccc(O)cc1	3%	1.0%	3%	-3
O=C(COC(=O)c1cccc(Br)c1)NCCNC(=O)COC(=O)c1cccc(Br)c1	-18%	?	1%	.
Cc1nc2cc(C(=O)N3CCN(C)CC3)ccc2n1C	-11%	-4.1%	-1%	.
CCCOP(=O)(c1ccc(N(C)C)cc1)C(O)c1ccncc1 (centres undefined)	19%	0.1%	0%	3
CC(C)=CCc1c(O)ccc2c1OC(c1ccc(O)c(O)c1)CC2=O (centres undefined)	?	?	5%	3
O=C(Nc1nncs1)c1cccc(S(=O)(=O)N2CCCCC2)c1	10%	-0.4%	-8%	-2
CC(=O)NCCc1ccc(C(=O)Cn2cnc3ccccc3c2=O)cc1	22%	4.9%	-22%	.
CC(C)(C)OC(=O)N1CCC(c2c(C(=O)NC3CC3)cnn2-c2ccc(Cl)cc2)CC1	-19%	-0.2%	-1%	.
CCCC(=O)N/C(N)=N/c1nc2ccccc2o1	22%	-1.8%	-35%	1
O=C(C1CCCN(C2CC(=O)N(c3ccc(F)cc3)C2=O)C1)N1CCCC1 (centres undefined)	-10%	-2.4%	0%	.
COC(=O)c1ccc(NC(CC(C)C)C(=O)OC)c([N+](=O)[O-])c1 (centres undefined)	-2%	0.0%	-6%	0
Cn1nccc1C(=O)N/N=C/c1ccccc1[N+](=O)[O-]	3%	0.5%	-57%	-4
Cc1nc2sc(C(N)=O)c(N)c2c(C)c1CC(=O)c1ccccc1	-2%	-1.2%	6%	-4
O=C(COc1ccc(-c2nnco2)cc1)Nc1cc([N+](=O)[O-])ccc1F	19%	-0.2%	.	.
C=CCn1c(N2CCCC2)nc2c1c(=O)n(C)c(=O)n2C	-16%	-1.1%	0%	.
COC(=O)C1=NN(C(=O)c2cccc(Cl)c2)C(O)(C(C)(C)C)C1 (centres undefined)	6%	-0.3%	-55%	-7
CCOC(=O)CSc1nnc(NCC(=O)OC(C)C)c(=O)[nH]1	-3%	-0.5%	-3%	-2
Cc1ccc(Nc2nnc(-c3ccc(N4CCOCC4)c([N+](=O)[O-])c3)c3ccccc23)cc1	0%	-0.8%	-6%	-15
O=C(Nc1cc(S(=O)(=O)N2CCOCC2)ccc1Cl)C1CCC1	5%	-0.9%	.	.
CN1CCN(S(=O)(=O)c2ccc(Oc3ccc(F)cc3Br)nc2)CC1	-7%	4.8%	-1%	1
COc1ccc(C(C)=O)cc1CN1C(=O)NC(c2ccccc2)(c2ccccc2)C1=O	11%	?	-4%	.
O=C(CCNC(=O)c1ccc([N+](=O)[O-])cc1)Nc1ccccc1N1CCCCC1	?	-3.5%	.	.
FC(F)(F)c1cccc(Cn2nnnc2-c2cc(Cl)cc(Cl)c2)c1	-3%	-0.2%	-11%	-3
O=C(N1CCN(S(=O)(=O)c2ccc(Cl)cc2)CC1)n1ccnc1	23%	3.5%	.	.
Cc1nn(Cc2ccccc2)c2sc(C(=O)NCc3cccnc3)cc12	-14%	-1.8%	-23%	-5
CC(C)C(NC(=O)c1ccc(C(C)(C)C)cc1)C(=O)OCC(=O)NC(=O)Cc1ccccc1 (centres undefined)	14%	-1.5%	-6%	-5
COc1ccc(-c2ccc3c(c2)O/C(=C\c2ccsc2)C3=O)cn1	?	?	.	.
O=C(Nc1cc(S(=O)(=O)N2CCOCC2)ccc1N1CCCC1)c1cccnc1Cl	18%	-1.1%	1%	1
O=C1CC(NNC(=O)c2ccccc2)C(=O)N1 (centres undefined)	-5%	0.2%	0%	2
COc1ccc(CCNC(=O)C(=O)c2cn(CC(=O)N3CCOCC3)c3ccccc23)cc1	-5%	0.4%	-9%	.
C=CCNc1nc(C(=O)OCC(=O)c2cccc(Br)c2)cs1	-1%	-5.1%	.	.
CCOC(=O)C1(CC2CCCCO2)CCN(Cc2cn[nH]c2-c2cccc(F)c2)CC1 (centres undefined)	12%	2.5%	1%	-8
Cc1cc(N2C(=O)C(O)=C(C(=O)c3cc4ccccc4o3)C2c2cccs2)no1 (centres undefined)	?	?	-9%	.
O=c1[nH]c(-c2ccc(Cl)cc2)nc(=S)[nH]1	-6%	-0.6%	-2%	4
CCCCOC(=O)Nc1ccc2c(C)cc(=O)oc2c1	-20%	6.4%	-82%	2
O=C(CN1C(=O)NC2(CCCc3ccccc32)C1=O)NC1CCCCC1 (centres undefined)	5%	-1.3%	.	.
CCS(=O)(=O)N1CCCC(C(=O)NCCCOC)C1 (centres undefined)	-2%	0.0%	0%	9
CCC(=O)c1ccc(OCC(=O)Nc2ccccc2C(=O)NC2CC2)cc1	7%	?	.	.
Nc1c(/C=C2/C=CC(=O)C(O)=C2)c(=O)nc2sc(CC(=O)N3CCCCC3)nn12	?	-2.3%	-12%	.
CCOc1cc(-c2c(C#N)c(=O)[nH]c3c2c(C)nn3-c2ccc(F)cc2)ccc1O	-2%	-0.7%	-21%	5
Cc1onc(-c2c(Cl)cccc2Cl)c1C(=O)NCc1ccccn1	-2%	-1.7%	-2%	2

Some of these compounds in order of molar mass, descending.
molecule	Rango dissoc inh	Rango complex inh	miR-21 reporter	GLA inh pH 4.5
O=C(Nc1cc(S(=O)(=O)N2CCOCC2)ccc1N1CCCC1)c1cccnc1Cl	18%	-1.1%	1%	1
COc1ccc(CCNC(=O)C(=O)c2cn(CC(=O)N3CCOCC3)c3ccccc23)cc1	-5%	0.4%	-9%	.
Cc1ccc(Nc2nnc(-c3ccc(N4CCOCC4)c([N+](=O)[O-])c3)c3ccccc23)cc1	0%	-0.8%	-6%	-15
CCOC(=O)C1(CC2CCCCO2)CCN(Cc2cn[nH]c2-c2cccc(F)c2)CC1 (centres undefined)	12%	2.5%	1%	-8
Nc1c(/C=C2/C=CC(=O)C(O)=C2)c(=O)nc2sc(CC(=O)N3CCCCC3)nn12	?	-2.3%	-12%	.
CCOc1cc(-c2c(C#N)c(=O)[nH]c3c2c(C)nn3-c2ccc(F)cc2)ccc1O	-2%	-0.7%	-21%	5
O=C(CCNC(=O)c1ccc([N+](=O)[O-])cc1)Nc1ccccc1N1CCCCC1	?	-3.5%	.	.
C=CCNc1nc(C(=O)OCC(=O)c2cccc(Br)c2)cs1	-1%	-5.1%	.	.
FC(F)(F)c1cccc(Cn2nnnc2-c2cc(Cl)cc(Cl)c2)c1	-3%	-0.2%	-11%	-3
Cc1onc(-c2c(Cl)cccc2Cl)c1C(=O)NCc1ccccn1	-2%	-1.7%	-2%	2
O=C(Nc1cc(S(=O)(=O)N2CCOCC2)ccc1Cl)C1CCC1	5%	-0.9%	.	.
O=C(N1CCN(S(=O)(=O)c2ccc(Cl)cc2)CC1)n1ccnc1	23%	3.5%	.	.
COc1ccc(-c2ccc3c(c2)O/C(=C\c2ccsc2)C3=O)cn1	?	?	.	.
CCOC(=O)CSc1nnc(NCC(=O)OC(C)C)c(=O)[nH]1	-3%	-0.5%	-3%	-2
CCS(=O)(=O)N1CCCC(C(=O)NCCCOC)C1 (centres undefined)	-2%	0.0%	0%	9
O=c1[nH]c(-c2ccc(Cl)cc2)nc(=S)[nH]1	-6%	-0.6%	-2%	4

Next section.
molecule	Rango dissoc inh	Rango complex inh	miR-21 reporter	GLA inh pH 4.5
Cc1cccc(C)c1NC(=O)CSc1nnc(-c2ccco2)c(-c2ccco2)n1	-4%	-3.2%	7%	1
CC(=O)Nc1ccc(NC(=O)CSc2nnc(-c3cccs3)n2N)cc1	-17%	-0.4%	.	.
COc1ccccc1N=C1NC(=O)/C(=C/c2ccc(N(C)C)cc2)S1	?	?	-24%	.
COCc1nnc(NC(=O)c2cccc(NC(=O)C(C)C)c2)s1	-8%	0.1%	-21%	8
CC1=C(C(=O)OCC2CCCO2)C(c2ccc(C)cc2)C2=C(CC(C)(C)CC2=O)N1 (centres undefined)	-27%	?	-19%	10
O=C(O)C1C2C=CC(C2)C1C(=O)NCc1ccccc1F (centres undefined)	17%	2.2%	1%	.
CN(c1ccccc1)S(=O)(=O)c1ccc(Cl)c(C(=O)Nc2nn[nH]n2)c1	13%	-2.6%	3%	-6
COc1ccc(S(=O)(=O)N(CC(=O)Nc2ccc3c(c2)OCO3)c2ccccc2OC)cc1	2%	-0.3%	22%	-10
CCCCc1ccc(NC(=S)NCc2cccnc2)cc1	-7%	-2.7%	8%	-9
COc1ccc(/C(O)=C2\C(=O)C(=O)N(CCCN(C)C)C2c2ccccc2F)cc1Cl (centres undefined)	.	.	0%	9
CCC(=O)c1ccc(N2CCCC2)c(F)c1	-7%	-0.1%	-31%	-4
O=C(CNCc1cccs1)Nc1ccc(N2CCCCCC2)cc1	1%	0.5%	-22%	-5
COc1ccccc1NS(=O)(=O)c1cccc(NC(=O)Cc2cccs2)c1	-7%	1.8%	2%	-4
CCOCCCn1cnc2c([nH]c3cc(OC)ccc32)c1=O	0%	-0.8%	-20%	-1
Cc1cccc(NC(=O)c2cc3n(n2)C(C(F)(F)F)CC(c2ccc4c(c2)OCO4)N3)c1 (centres undefined)	-9%	5.7%	29%	-2
COc1ccc(NC(=O)CSc2nnc(Cc3ccccc3)c(=O)n2N)cc1	-2%	-0.1%	.	.
COCCn1c(C)cc(C(=O)CSc2nc3ccccc3c(=O)[nH]2)c1C	-1%	?	-41%	4
COc1ccccc1C(c1nnnn1Cc1ccco1)N1CCN(c2cccc(C)c2C)CC1 (centres undefined)	-6%	-5.4%	11%	-6
Cc1cc2nnc(SCC(=O)NCc3ccco3)n2c2ccccc12	-19%	-2.9%	.	.
Nc1nnc(N2CCCCCC2)s1	-11%	0.8%	-13%	.
Cc1cc(C)c(NC(=O)c2cc(=O)c3ccccc3o2)c(C)c1	25%	-1.9%	5%	-10
C/C(CC(=O)Nc1ccc2c(c1)OCCO2)=N\NC(=O)COc1ccccc1	-19%	0.6%	-8%	.
COc1cccc(NC(=O)NCCCSC2CCCCC2)c1	28%	1.6%	-6%	-1
Cc1nc2ccccn2c1CN(C)C(=O)C1CCC(=O)N(CCc2cccc(F)c2)C1 (centres undefined)	1%	0.1%	0%	.
COc1ccc(COc2cc(-c3cccc(OC)c3)nc3ccc(NC(=O)c4ccc(C)cc4)cc23)cc1	-5%	-1.8%	17%	-5&-2
O=C1NC2(CCCCC2)C(=O)N1Cc1cc(=O)n2ccsc2n1	-13%	-1.7%	-2%	-6

A portion of the library, so the mix of outcomes need not match the whole.
